# A1 inh: inhibitors of the anti-apoptotic protein A1, read as caspase activation | MEF A1-2A-BIM cells, Caspase-Glo 3/7 luminescence, 3 h; percent of clofoctol response, vehicle zero | caspase activation, % (test concentration not listed) | hit rate 0.066% among 330,000;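 active = over half of replicate activation scores above 10%, or exactly half above 10 with the replicate mean above 10; inconclusive = replicate mean below 10 yet half the replicates above 10; inactive = over half of replicates below 10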;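 also: wells of about 30 µL received 50 nL stock; many hits fall short of the cut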
# Beta apoptosis: beta cell apoptosis inhibition. INS-1E cytokine-induced death, ATP luminescence, 48 h; percent of positive-control rescue, neutral wells zero. protection from apoptosis, % (no concentration beside the values). hit rate 0.8% among 300,000;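 active = all replicates at 75% or more, or half of them and the mean; inconclusive = half reach 75% but not the mean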;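 also: 0% = cytokine-treated negative control wells and 100% = positive control rescue; higher means more ATP so stronger rescue from cytokine killing; wells of about 40 µL received 100 nL stock; the first replicate is given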
# LANA-H2A inh: blocks KSHV LANA binding to histone H2A/H2B | Q9QR71 | hit rate 0.6% among 320,000 | inhibition, % (no concentration beside the values) | cell-free LANA-H2A/H2B peptide, fluorescence polarization | AID 2629; in the data active = inhibition mostly above about 10%, no sharp cut-off; inactive = mostly below about 6.7%;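 also: stock transfer was 7.5 nL into about 10 µL; 0% = median of vehicle wells and 100% = median of positive control wells; one replicate is shown; the record names a cut of 25% in any replicate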
# Target sequence (Q9QR71 whole entry, looked up): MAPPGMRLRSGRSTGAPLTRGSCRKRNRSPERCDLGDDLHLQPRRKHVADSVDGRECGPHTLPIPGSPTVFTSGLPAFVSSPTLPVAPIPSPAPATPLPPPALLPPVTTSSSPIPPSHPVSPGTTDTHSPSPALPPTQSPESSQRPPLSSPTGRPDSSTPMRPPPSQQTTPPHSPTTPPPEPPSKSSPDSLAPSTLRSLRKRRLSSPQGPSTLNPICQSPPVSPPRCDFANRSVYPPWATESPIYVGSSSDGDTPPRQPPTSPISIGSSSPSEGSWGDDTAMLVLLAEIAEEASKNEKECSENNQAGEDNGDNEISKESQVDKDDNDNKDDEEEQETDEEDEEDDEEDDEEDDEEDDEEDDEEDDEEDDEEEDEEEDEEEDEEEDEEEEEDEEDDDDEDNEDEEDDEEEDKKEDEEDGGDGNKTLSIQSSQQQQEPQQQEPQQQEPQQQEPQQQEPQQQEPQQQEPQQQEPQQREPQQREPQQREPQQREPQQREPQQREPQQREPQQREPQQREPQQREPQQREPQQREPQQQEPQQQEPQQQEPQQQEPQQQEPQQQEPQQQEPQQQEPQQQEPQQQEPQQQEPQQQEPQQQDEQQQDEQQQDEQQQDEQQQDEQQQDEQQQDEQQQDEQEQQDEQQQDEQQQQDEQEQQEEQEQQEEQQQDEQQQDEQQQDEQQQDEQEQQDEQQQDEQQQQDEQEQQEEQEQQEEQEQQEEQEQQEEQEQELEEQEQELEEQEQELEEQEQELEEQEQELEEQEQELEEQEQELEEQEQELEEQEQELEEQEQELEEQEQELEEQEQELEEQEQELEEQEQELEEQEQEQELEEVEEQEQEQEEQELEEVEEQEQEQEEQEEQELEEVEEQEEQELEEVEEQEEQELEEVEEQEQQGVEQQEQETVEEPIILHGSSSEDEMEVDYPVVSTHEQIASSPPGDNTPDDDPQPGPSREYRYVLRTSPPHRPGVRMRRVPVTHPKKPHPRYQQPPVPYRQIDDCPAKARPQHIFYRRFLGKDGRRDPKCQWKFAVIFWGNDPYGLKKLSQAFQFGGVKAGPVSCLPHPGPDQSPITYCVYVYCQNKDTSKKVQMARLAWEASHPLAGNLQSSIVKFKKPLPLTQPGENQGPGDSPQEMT
# ALR inh: human ALR oxidase inhibition via reduced H2O2 | purified ALR, DTT oxidation, H2O2 HRP-luminol luminescence | inhibition, % (test concentration not listed) | hit rate 3.8% among 290,000 | AID 485317;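 active = mean and each replicate at 75% or more; inconclusive = only one of the two met; inactive = neither met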;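 also: stock transfer was 7.5 nL into about 7.5 µL; 0% = neutral wells and 100% = wells with inactivated enzyme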
# Calb FLC: affects C. albicans growth with fluconazole | hit rate 0.57% among 300,000 | AID 1979 | growth inhibition, % (concentration not given with the values) | C. albicans CaCi-2 (fluconazole-resistant clinical isolate) + fluconazole, Alamar Blue growth, 48 h;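 active = most replicates above 75%; inconclusive = exactly half above 75%; inactive = most below 75%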;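 also: all wells also contain fluconazole at 8 µg/ml as a sub-toxic cotreatment; 0% = median of DMSO wells and 100% = median of geldanamycin control wells; wells of about 8 µL received 7.5 nL stock; the first replicate is given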
# B2AR ag: activates human beta-2 adrenergic receptor causing internalization; P07550; Am2.2-beta2AR cells, FAP receptor internalization, flow cytometry; reference of the scale not given here; response, % (concentration not given with the values); hit rate 0.43% among 340,000; AID 504454;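 active = response above a set limit, near 3 SD of response in nonfluorescent compounds, cut at about 42% in these data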;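 also: stock transfer was 100 nL into about 11 µL; a reference agonist was the positive control; negative values mostly stem from fluorescent compounds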
# Ecoli rRNA inh: inhibits bacterial ribosomal RNA function over humanized ribosomes. E. coli WT GFP vs humanized-ribosome RFP mutants, fluorescence, 24 h; hits give low values; DMSO median 0, no signal -100. GFP signal change (wild-type ribosome), % (no concentration beside the values). hit rate 1.6% among 350,000;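 active = significant combined selectivity score with lowered wild-type GFP, culture density cut under 30%, mutant RFP and density less affected; inactive = any of these conditions unmet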; also: one replicate is shown; some compounds called inactive have numbers as strong as hits
# T cruzi repl: T. cruzi replication inhibition. T. cruzi beta-gal in NIH3T3, luminescence, 90 h. inhibition, % (no concentration beside the values). hit rate 1.4% among 300,000. AID 1885;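 active = mean inhibition across valid replicates above about 55%, limit read from the data; inconclusive = mean below that limit but half or more replicates reach it; inactive = mean below it, under half of replicates reach it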;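 also: signal also drops with host cell toxicity which is not excluded here; 0% = plate median of DMSO wells and 100% = zero luminescence signal; higher percent means less beta-gal luminescence so fewer parasites; stock transfer was 50 nL into about 50 µL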
# Ecoli rRNA inh OD600: further read-out of Ecoli rRNA inh, marked with its call; OD600 change, %; measured here: OD600 growth;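 optical density of the mix in the first replicate; 0 = DMSO median and -100 = no signal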
# Ecoli rRNA inh RFP: further read-out of Ecoli rRNA inh, marked with its call; RFP signal change, %; measured here: RFP humanized mutant strains;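 first replicate; 0 = DMSO median and -100 = no signal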
# * marks the source's active call; other numbers are inactive results; ? = inconclusive; · = no result given. These rows are one share of the data (hit frequency here may not be typical).
SMILES,A1 inh,Beta apoptosis,LANA-H2A inh,ALR inh,Calb FLC,B2AR ag,Ecoli rRNA inh,Ecoli rRNA inh OD600,Ecoli rRNA inh RFP,T cruzi repl
COc1ccc(C2C(C(=O)N3CCN(C)CC3)c3ccccc3C(=O)N2C2CCCCC2)cc1 (centres undefined),0.6,·,2.2,0,-1,0,-5,10,-0.6,-7
COc1ccc(OC)c(NC(=S)N2CCCC2)c1,0.5,2,-4.3,-35,3,1,5,10,0.6,·
CCOC(=O)N1CCC(NC(=O)c2cnn3c2NC(c2ccco2)CC3C(F)(F)F)CC1 (centres undefined),0.7,-2,-1.3,-1,0,-6,·,·,·,-25
COCCN(CC1CCCN(C2Cc3ccccc3C2)C1)C(=O)CCC(C)=O (centres undefined),0.5,-3,0.9,-2,2,0,11,13,3.7,46
Cc1ccc(C(=O)Nc2ccccc2C(=O)NCc2cccnc2)cc1,-0.1,-8,-6.2,-7,2,-1,-4,-3,-0.6,7
CCOC(=O)C1CCN(C(=O)c2cc(CN3C(=O)c4ccccc4C3=O)ccc2OCC)CC1,0.3,-1,0.0,65,·,10,-3,-16,-1.4,-6
O=C(CN1C(=O)NC2(CCOc3ccccc32)C1=O)Nc1cccc(Cl)c1 (centres undefined),0.1,-4,0.0,24,-1,5,-32,-33,-1.7,3
CCc1ccc(-c2nnn(CCC#N)n2)cc1,-0.8,0,1.4,1,-9,0,-1,-6,-1.8,-17
O=C(Nc1cccc2c1CCCC2)c1ccccc1F,0.6,2,-0.1,-2,7,-5,-6,-2,-2.1,-23
O=C(NCC(=O)N(c1ccc2c(c1)OCO2)C(C(=O)NC1CCCC1)c1cccs1)c1ccco1 (centres undefined),-0.3,-16,-2.8,-5,-2,-4,·,·,·,-4
COc1ccccc1C(CC(=O)Nc1ccc(Cl)cc1)c1ccc(OC(C)C)cc1 (centres undefined),0.8,17,3.4,-11,6,1,·,·,·,46
O=C(Cc1ccccc1)N1CCc2[nH]nc(-c3ccccc3)c2C1,4.4,-4,0.4,-4,38,-16,-11,-4,-0.1,9
Cc1ccc(S(=O)(=O)Nc2ccc(Nc3ccccc3)cc2)cc1,-0.4,-5,7.2,99*,19,-7,-28,-51,30,5
Cc1ccccc1OCCCCn1cnc2ccccc21,-0.5,103*,-1.7,-9,42,0,·,·,·,-16
CC(C)(C)NC(=O)c1cc(C(C)(C)C)c(O)c(C(C)(C)C)c1,0.0,3,-9.0,-3,-3,2,·,·,·,18
O=C(/C=C/c1ccc(F)cc1)c1ccc(N2CCOCC2)cc1,-0.8,0,2.1,-2,3,0,0,-5,-6.7,-17
COc1ccc(CCNC(=O)C2CCN(C(=O)c3ccccc3C)CC2)cc1,0.2,2,-0.8,-4,3,-7,-2,5,-2.6,-11
COc1ccc(OC)c(NC(=O)c2ccc(S(=O)(=O)N3CCOCC3)cc2)c1,0.1,-3,-7.3,-5,4,14,-1,-3,0.2,4
COC(=O)C(C#N)C(c1cccnc1)c1c(C)[nH][nH]c1=O (centres undefined),0.8,2,-1.7,·,-11,-2,2,-3,-3.7,3
c1ccc(N2CCN(c3nc4cc5c(cc4s3)OCO5)CC2)cc1,-3.3,1,2.2,·,-31,1,·,·,·,3
CC(=O)NC1=NN(C(C)=O)C(c2ccccc2)S1 (centres undefined),-0.1,-1,-5.3,-4,?,0,9,12,0.8,-6
O=C(N/C(=C\c1cccs1)C(=O)N1CCOCC1)c1cccs1,0.2,-1,-0.8,-2,-11,-7,13,5,-1.0,-14
COc1ccc(/C=C/C(=O)OCC(=O)NC(C)CCc2ccccc2)cc1OC (centres undefined),-0.5,-5,-0.2,30,·,4,-26,-26,-1.5,·
O=C(NCc1cccnc1)Nc1ccc(Cl)cc1,-0.2,-3,-0.3,-6,4,-6,-5,2,-1.6,-3
Cc1ccc(NC(=O)CSCc2ccco2)cc1,-0.1,-8,4.0,99*,-13,4,10,9,-1.2,-13
O=C(OCc1ccccc1)C1=NNC2C(=O)N(c3ccccc3)C(=O)C12 (centres undefined),0.3,1,0.2,-19,6,13,·,·,·,-5
COc1ccc(N=c2sc3ccccc3n2C)cc1,-1.3,-8,4.7,98*,27,-18,·,·,·,12
CCc1c(C)c2ccc(OCC(=O)OC(C)C)c(C)c2oc1=O,-0.2,-4,-3.4,-6,25,-3,·,·,·,0
CC(C)Oc1ccccc1/C=N/NC(=O)c1ccccc1Cl,0.2,-4,0.0,0,11,-11,8,2,1.2,-10
COc1cc(/C=C/C(=O)c2ccc3c(c2)OCCO3)cc(Br)c1OCC(=O)N(C)C,-0.4,-13,0.4,·,2,10,-16,-36,-1.6,8

# Gathered by group: the compounds so far with a cyano group.
SMILES,A1 inh,Beta apoptosis,LANA-H2A inh,ALR inh,Calb FLC,B2AR ag,Ecoli rRNA inh,Ecoli rRNA inh OD600,Ecoli rRNA inh RFP,T cruzi repl
CCc1ccc(-c2nnn(CCC#N)n2)cc1,-0.8,0,1.4,1,-9,0,-1,-6,-1.8,-17
COC(=O)C(C#N)C(c1cccnc1)c1c(C)[nH][nH]c1=O (centres undefined),0.8,2,-1.7,·,-11,-2,2,-3,-3.7,3

# New compounds follow:
SMILES,A1 inh,Beta apoptosis,LANA-H2A inh,ALR inh,Calb FLC,B2AR ag,Ecoli rRNA inh,Ecoli rRNA inh OD600,Ecoli rRNA inh RFP,T cruzi repl
CCCCC(=O)Nc1ccc(NC(=O)C2CC2)cn1,-0.5,-6,-1.0,-8,2,-6,·,·,·,26
CN(CCCC(=O)O)c1ccc(N=Nc2ccc([N+](=O)[O-])cc2)cc1,-5.5,26,2.3,3,-2,12,-31*,-3.5*,3.6*,17
O=C1C(=O)N(Cc2cccnc2)C(c2ccccn2)/C1=C(/O)c1ccccc1 (centres undefined),1.9,-1,-2.0,-3,2,-7,·,·,·,3
COc1ccc(C(=O)On2c(-c3ccc(Br)cc3)nc3ccccc3c2=O)cc1,0.0,0,-8.6,-4,104*,15,-40,-58,1.5,-18
Nc1ccc(SCc2cccnc2)cc1,-0.1,-3,-0.7,100*,0,12,3,5,-1.8,2
CC(C)c1c(O)nc(SCC(=O)Nc2ccc3c(c2)CCC3)[nH]c1=O,0.4,·,-0.4,99*,2,5,·,·,·,7
COc1ccc(NC(=O)C2Cc3ccccc3C(=O)O2)cc1 (centres undefined),-0.4,-5,-1.9,-1,-12,6,0,0,-1.5,7
CC(C)(C)C(=O)Nc1nc2c(s1)CN(Cc1ccccc1)CC2,0.6,-4,4.8,-13,10,3,3,8,6.0,12
O=S(=O)(c1cc(C(F)(F)F)ccc1Cl)N1CCCCCC1,-0.6,-6,-0.7,5,0,-23,-7,-2,-6.9,3
CCn1c(SCC(=O)N2CCCCCC2)nc2ccccc2c1=O,1.4,-1,3.5,-2,-4,·,-8,-18,0.5,19
O=C(Cc1ccccc1)NCC(=O)OCC(=O)c1ccc(F)cc1,2.4,-6,5.5,0,0,-3,9,5,7.7,-6
N#CC1=C(N)N(c2ccccc2)C(c2cccc([N+](=O)[O-])c2)C1(C#N)C#N (centres undefined),-0.9,·,-1.1,0,25,15,·,·,·,17
Cc1cc(C)c2c(CN3CCOCC3)cc(=O)oc2c1C,0.6,·,7.7,-4,-3,-2,-22,-24,0.6,-12
C[C@@H](O)C1NC(=O)[C@H](CCCCN)NC(=O)c2cc([N+](=O)[O-])cc(I)c2OCC[C@@H](C(N)=O)NC1=O (some centres undefined),0.5,-4,1.6,·,11,2,10,14,-3.2,-21
COc1cc(C(=O)NC(=S)Nc2cccc3nc(C)ccc23)cc(OC)c1OC,0.1,0,0.1,-11,?,5,3,-1,5.3,-1
CC1CCC2C(=O)N(c3cccc(C(=O)Nc4ccc(F)cc4)c3)C(=O)C2C1 (centres undefined),-0.4,-2,4.4,-4,-1,8,8,9,-1.2,-8
CCOC(=O)C1=C(C)N(C)C(=O)NC1c1ccc2c(c1)OCO2 (centres undefined),0.3,1,3.6,-8,-6,-2,12,9,-1.7,-8
Cc1cc(N/N=C/c2ccccc2O)nc(N2CCOCC2)n1,0.0,-7,0.4,47,24,31,15,0,7.2,1
Cc1ccc(NC(=O)Cn2cc(C(=O)C3CC3)c3ccccc32)c(C)c1,-0.7,4,-0.9,-7,-7,-5,8,5,-1.8,-14
CC(=O)Nc1ccc(NC(=S)NC(=O)C2CC2)cc1,0.5,·,-2.0,-10,5,-13,2,0,-1.5,-14
C=CC[n+]1c(C)csc1Nc1cccc(Br)c1,0.1,-33,1.1,97*,0,-3,7,4,7.8,6
Cc1cccc(C(=O)Nc2nnc(S(=O)(=O)N(C)Cc3ccco3)s2)c1,-1.6,8,-2.9,94*,4,-2,-10,-1,-4.3,-3
COC(=O)C[C@H](NC(=O)Cn1cnc2c(OCc3ccccc3)ncnc21)C(=O)OC,0.2,-13,-3.8,·,·,3,-3,10,-2.6,·
COC(=O)c1sccc1NC(=O)CSCCc1ccncc1,-0.9,-6,·,·,10,-3,10,-3,2.6,0
Cc1nc2cc(C)c(C)cc2s1,-0.9,2,1.1,2,4,0,12,7,1.4,6
O=C(c1ccccc1)c1c[nH]c2ccccc12,-2.1,2,-2.6,4,5,3,4,12,-2.0,-5
COc1ccccc1NC(=O)COC(=O)c1c[nH]c(=O)[nH]c1=O,1.3,6,0.8,·,1,4,1,1,-4.1,-5
CCCn1cnc2cc(NCc3cccc(OC)c3O)ccc21,-0.9,5,-1.0,85*,-3,0,·,·,·,-9

# Three compounds from above, ordered by their value in ALR inh, largest number first:
molecule	LANA-H2A inh	ALR inh	B2AR ag	Ecoli rRNA inh	Ecoli rRNA inh OD600	Ecoli rRNA inh RFP
Cc1cccc(C(=O)Nc2nnc(S(=O)(=O)N(C)Cc3ccco3)s2)c1	-2.9	94*	-2	-10	-1	-4.3
Cc1cc(N/N=C/c2ccccc2O)nc(N2CCOCC2)n1	0.4	47	31	15	0	7.2
CC(=O)Nc1ccc(NC(=S)NC(=O)C2CC2)cc1	-2.0	-10	-13	2	0	-1.5

# Fetched by compound from the list above:
SMILES,A1 inh,Beta apoptosis,LANA-H2A inh,ALR inh,Calb FLC,B2AR ag,Ecoli rRNA inh,Ecoli rRNA inh OD600,Ecoli rRNA inh RFP,T cruzi repl
CCn1c(SCC(=O)N2CCCCCC2)nc2ccccc2c1=O,1.4,-1,3.5,-2,-4,·,-8,-18,0.5,19
COc1ccc(C2C(C(=O)N3CCN(C)CC3)c3ccccc3C(=O)N2C2CCCCC2)cc1 (centres undefined),0.6,·,2.2,0,-1,0,-5,10,-0.6,-7
CCOC(=O)C1CCN(C(=O)c2cc(CN3C(=O)c4ccccc4C3=O)ccc2OCC)CC1,0.3,-1,0.0,65,·,10,-3,-16,-1.4,-6
COc1cc(/C=C/C(=O)c2ccc3c(c2)OCCO3)cc(Br)c1OCC(=O)N(C)C,-0.4,-13,0.4,·,2,10,-16,-36,-1.6,8

# Assay outcomes deposited in PubChem BioAssay by several laboratories.
